Screens: PubChem, several laboratories
Ecoli rRNA inh = selective bacterial rRNA inhibition in E. coli; E. coli WT GFP vs humanized-ribosome RFP mutants, fluorescence, 24 h; stronger effect = lower value; DMSO median 0, no signal -100; GFP signal change (wild-type ribosome), % (no concentration beside the values); 350,000 tested, 1.6% active; AID 720706;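 active means significant combined selectivity score with lowered wild-type GFP, culture density cut under 30%, mutant RFP and density less affected; inactive means any of these conditions unmet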; further: one replicate is shown; some compounds called inactive have numbers as strong as hits
Calb FLC = affects C. albicans growth with fluconazole | C. albicans CaCi-2 (fluconazole-resistant clinical isolate) + fluconazole, Alamar Blue growth, 48 h | growth inhibition, % (no concentration beside the values) | 300,000 tested, 0.57% active | AID 1979;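 active means most replicates above 75%; inconclusive means exactly half above 75%; inactive means most below 75%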;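 further: all wells also contain fluconazole at 8 µg/ml as a sub-toxic cotreatment; 0% = median of DMSO wells and 100% = median of geldanamycin control wells; wells of about 8 µL received 7.5 nL stock; the first replicate is given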
AF4-AF9 inh = MLL-AF4/AF9 protein interaction inhibition; AlphaScreen, biotin-AF4 peptide binding to FLAG-AF9; 350,000 tested, 0.47% active; P42568; inhibition, % at 10 µM;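 active means every replicate reaching a set inhibition limit, whatever the replicate mean, cut at about 25% in these data; inconclusive means mean inhibition reaches that limit but some replicates miss it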;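 further: 0% = plate neutral control median and 100% = total signal loss; the record names both 10 and 1 µM as test concentration; the first replicate is given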
Target sequence (P42568 whole entry, looked up): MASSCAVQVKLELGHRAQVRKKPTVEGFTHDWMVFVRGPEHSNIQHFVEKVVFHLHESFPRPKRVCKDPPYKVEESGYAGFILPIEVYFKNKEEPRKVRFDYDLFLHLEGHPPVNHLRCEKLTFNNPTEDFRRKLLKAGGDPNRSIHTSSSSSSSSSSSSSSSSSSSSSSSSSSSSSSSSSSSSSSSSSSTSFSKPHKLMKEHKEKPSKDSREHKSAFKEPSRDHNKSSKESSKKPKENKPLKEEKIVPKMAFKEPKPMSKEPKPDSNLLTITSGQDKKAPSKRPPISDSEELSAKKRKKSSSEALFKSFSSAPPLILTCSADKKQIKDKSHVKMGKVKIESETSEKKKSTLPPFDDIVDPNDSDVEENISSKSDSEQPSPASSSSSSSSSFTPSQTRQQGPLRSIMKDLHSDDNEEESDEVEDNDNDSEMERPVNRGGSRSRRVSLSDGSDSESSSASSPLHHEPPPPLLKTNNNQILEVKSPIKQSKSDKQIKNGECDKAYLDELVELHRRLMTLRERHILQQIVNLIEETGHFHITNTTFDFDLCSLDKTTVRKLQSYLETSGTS
Bfl-1 A1 inh = inhibitors of the anti-apoptotic protein A1, read as caspase activation; MEF A1-2A-BIM cells, Caspase-Glo 3/7 luminescence, 3 h; percent of clofoctol response, vehicle zero; caspase activation, % (test concentration not listed); 330,000 tested, 0.066% active; AID 2462;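 active means over half of replicate activation scores above 10%, or exactly half above 10 with the replicate mean above 10; inconclusive means replicate mean below 10 yet half the replicates above 10; inactive means over half of replicates below 10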;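 further: wells of about 30 µL received 50 nL stock; many hits fall short of the cut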
Beta cell apopt = blocks beta cell apoptosis. protection from apoptosis, % (no concentration beside the values). INS-1E cytokine-induced death, ATP luminescence, 48 h; percent of positive-control rescue, neutral wells zero. 300,000 tested, 0.8% active;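 active means all replicates at 75% or more, or half of them and the mean; inconclusive means half reach 75% but not the mean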;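 further: 0% = cytokine-treated negative control wells and 100% = positive control rescue; higher means more ATP so stronger rescue from cytokine killing; wells of about 40 µL received 100 nL stock; the first replicate is given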
Vif A3G = HIV-1 Vif–A3G interaction blockers – biochemical, TR-FRET, GST-Vif 1-94, biotin-A3G peptide, dose response retest, primary screen (AID 1117319). TR-FRET GST-Vif / biotin-A3G peptide binding; higher % means a stronger effect; test concentration not given here; strong numbers were not always called active. inhibition, %; hits with a dose series show IC50 in µM. 260,000 tested, 0.57% active;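 active means above the screen mean plus three standard deviations and confirmed in dose response; inconclusive means results disagree or hit not tested in dose response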;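 further: Vif residues 1-94 fused to GST binding biotinylated APOBEC3G peptide 110-148; 0% = full assay without inhibitor and 100% = GST in place of GST-Vif; retest series ran down from 100 µM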
T cruzi inh = T. cruzi replication inhibition; T. cruzi beta-gal in NIH3T3, luminescence, 90 h; inhibition, % (test concentration not listed); 300,000 tested, 1.4% active;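 active means mean inhibition across valid replicates above about 55%, limit read from the data; inconclusive means mean below that limit but half or more replicates reach it; inactive means mean below it, under half of replicates reach it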;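 further: signal also drops with host cell toxicity which is not excluded here; 0% = plate median of DMSO wells and 100% = zero luminescence signal; higher percent means less beta-gal luminescence so fewer parasites; stock transfer was 50 nL into about 50 µL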
RanGTP-Imp inh = disruptors of Ran-importin-beta complex formation – biochemical, FRET, CFP-Ran, YFP-importin-beta, homogeneous, primary screen. cell-free CFP-Ran/YFP-importin-beta FRET ratio. inhibition, % (concentration not given with the values). 300,000 tested, 1.1% active;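 active means most replicates above 15%; inconclusive means exactly half above 15%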;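 further: 0% = DMSO wells and 100% = Ran loaded with GDP instead of GTP; wells of about 40 µL received 100 nL stock; the first replicate is given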
Ecoli rRNA inh OD600 = also measured in Ecoli rRNA inh; calls as there; OD600 change, %; measured here: OD600 growth;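 optical density of the mix in the first replicate; 0 = DMSO median and -100 = no signal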
Ecoli rRNA inh RFP = further read-out of Ecoli rRNA inh, marked with its call; RFP signal change, %; measured here: RFP humanized mutant strains;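 first replicate; 0 = DMSO median and -100 = no signal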
An asterisk follows results filed as active; u = inconclusive; x = no result given.

SMILES	Ecoli rRNA inh	Ecoli rRNA inh OD600	Ecoli rRNA inh RFP	Calb FLC	AF4-AF9 inh	Bfl-1 A1 inh	Beta cell apopt	Vif A3G	T cruzi inh	RanGTP-Imp inh
O=C(CNC1CCCCC1)Nc1ccc([N+](=O)[O-])cc1C(=O)Nc1ccccc1F	4	7	0.3	14	-31	-0.6	8	-16%	4	-4.6
CCOC(=O)c1cccc(NC(=O)CCS(=O)(=O)c2cccs2)c1	x	x	x	11	x	0.8	x	14%	13	2.6
Cc1cccc(OC(C)C(=O)OCC(=O)Nc2sccc2C(N)=O)c1 (centres undefined)	4	6	3.6	x	-0.3	0.0	5	x	x	x
Cc1nn(-c2ccccc2)c(=O)c2noc(C)c12	20	-5	-1.3	-5	-2.9	2.4	x	u	x	1.4
COc1ccccc1CNC(=O)COC(=O)c1ncc(Cl)c(Cl)c1Cl	3	10	-2.0	12	-2.7	-0.6	0	-6%	-12	1.4
CCOC(=O)[C@@H]1[C@H]2COc3cc(OC)ccc3[C@@H]2N2C(=O)N(c3ccc(C(F)(F)F)cc3)C(=O)[C@]12C	20	18	3.2	-5	-3.5	0.1	-4	x	-10	8.3
COCc1[nH][nH]c(=O)c1C=Nc1ccc(Oc2ccccc2)cc1	x	x	x	2	x	0.2	-2	2%	-4	-2.3
C=CCn1c(SCC(=O)NCCc2ccccc2)nnc1C1CC1	12	9	0.5	-11	-2.5	1.0	0	-4%	2	5.0
O=C1CCC(C(=O)OCC(=O)C23CC4CC(CC(C4)C2)C3)N1 (centres undefined)	x	x	x	1	x	-0.6	2	26%	x	x
COc1ccc(NC(=O)Cn2c(=O)oc3ccccc32)cc1	7	-1	-9.0	-2	-0.6	0.7	0	1%	6	-2.3
COc1ccc(CCNC(=O)C(CCC(N)=O)NS(=O)(=O)c2ccc(Cl)cc2)cc1OC (centres undefined)	4	12	0.4	1	-0.3	0.8	-8	3%	0	3.3
O=C(O)c1cccnc1Sc1ncnc2sc3c(c12)CCC3	-3	-2	2.2	6	-2.2	-0.2	-7	7%	-3	1.4
Cc1cccc(C(=O)Oc2cccc3c(O)cccc23)c1	3	4	-0.3	11	-1.7	-0.1	0	x	5	-0.1
COc1ccc(Cl)cc1C(=O)Nn1c(-c2cccs2)nc2ccccc2c1=O	-8	-11	-0.5	8	-5.3	0.9	7	x	24	2.6
COC(=O)C(Cc1c[nH]c2ccccc12)NC(=O)C(C)C (centres undefined)	x	x	x	-2	x	0.4	x	>100µM*	-7	0.2
COc1ccc(CCNC(=O)CCn2c(=O)[nH]c3cc(OC)c(OC)cc3c2=O)cc1OC	x	x	x	-8	x	0.9	-8	2%	-19	1.8
CC(=O)Oc1ccccc1C1=NN(C(=O)/C=C/c2ccccc2)C(c2ccccc2)C1 (centres undefined)	x	x	x	-7	x	-0.4	17	u	11	7.4
CNCCCOc1ccc(C(C)(C)c2ccccc2)cc1	x	x	x	-68	x	x	x	-2%	28	-0.6
Cn1c(CNC(=O)c2ccccc2F)nnc1SCc1ccc(Cl)cc1	-6	-5	-9.2	-11	-1.1	0.7	-7	-11%	-1	-1.1
CC(C)C(=O)N1CCN(CCN2C(=O)c3cccc4cccc(c34)C2=O)CC1	-13	-9	0.9	12	0.4	x	x	-5%	0	4.0
O=C(NCCOC(=O)c1ccccc1C(=O)OCCNC(=O)c1cccnc1)c1cccnc1	x	x	x	4	x	0.0	-4	-2%	-10	-0.2
COc1cccc2cc(-c3nnc(SCC(=O)NCCc4ccccc4)n3C)oc12	x	x	x	7	x	1.3	1	-26%	6	-1.4
NC(=O)[C@@H]1CCOc2c(F)cc([N+](=O)[O-])cc2C(=O)N[C@@H](CO)C(=O)NCC(=O)N1	12	16	6.3	-4	-3.4	-0.3	-5	x	-7	-2.8
CCOC(=O)c1nnn(-c2nonc2N)c1-c1ccc(Br)cc1	-36	-41	-5.3	15	-0.3	-0.1	-7	x	2	8.1
CCCCc1nc2ccccc2n1CC(=O)NN	x	x	x	-4	x	0.3	-8	22%	8	2.5
CCOC(=O)c1c(NC(=O)CN2CCOCC2)sc2c1CC(C)(C)OC2	x	x	x	1	x	1.0	1	6%	21	1.5
Cc1cc(NC(=O)CSC2=NS(=O)(=O)c3ccccc3N2)no1	3	12	-4.7	-10	8.8	1.1	-7	x	-3	2.1
CCn1cc(CN2N=C(C)CC2c2ccccc2)c(C)n1 (centres undefined)	8	5	-2.2	-26	0.1	-0.1	-2	7%	5	-2.5
Cc1cc(C)cc(NS(=O)(=O)c2c(C(=O)N3CCOCC3)c(C)n(C)c2C)c1	12	-2	-1.1	-4	-0.6	-0.5	x	-9%	-3	1.3
O=P(OCC1CC1)(c1ccccc1)c1ccccc1	11	6	0.8	u	-4.8	-0.4	-9	u	4	4.3
Nc1c(C(=O)NCCc2ccc(Cl)cc2)sc2ccc(S(=O)(=O)N3CCCCC3)cc12	5	4	14	-11	0.0	0.1	21	26%	59*	1.0
Cc1ccc(SCCC(=O)N(C)CC(=O)Nc2c(C)cccc2C)cc1	-1	5	1.1	1	-2.8	0.0	1	x	-7	-1.7
Cc1ccc(/C=C2/C(=O)ON=C2c2ccccc2)o1	25	21	5.2	13	6.6	-0.5	x	18%	10	-12
CC(=O)c1cccc(NC(=O)COc2nsnc2N2CCOCC2)c1	x	x	x	4	x	2.7	-4	-1%	-5	-2.6
Cc1oc(-c2ccc(Cl)cc2)cc1C(=O)O	-17	-11	0.5	0	-0.6	-12	-4	x	-15	-3.0
COc1cccc(C2Oc3ccccc3C3CC(c4cccs4)=NN32)c1 (centres undefined)	-29*	-18*	-8.3*	-4	4.7	-1.1	4	3%	7	1.0
Cc1nc2nc(CSc3nc4ccccc4s3)cc(=O)n2[nH]1	x	x	x	-5	x	-0.7	-4	7%	-6	-4.0
COC(=O)c1ccc(OCC(O)CN2CCOCC2)cc1 (centres undefined)	13	3	-2.8	-16	-1.5	0.3	-1	-4%	0	1.9
COc1ccc(-c2cc(-c3ccccc3)nc(Cl)n2)cc1OC	8	13	-1.9	1	-22	-0.4	6	-2%	19	0.9
Cc1cc(NC(=O)CN2C(=O)NC(C)(c3ccccc3Cl)C2=O)no1 (centres undefined)	17	8	0.4	x	4.6	0.0	-5	-5%	x	x
CCc1ccc(NC(=O)CSc2nc3ccccc3c(=O)n2CCCN2CCC(C)CC2)cc1	-48	-40	-8.2	-16	10	0.4	9	-6%	25	-0.2
Cc1ccc(CCN2CC(C(=O)NCCCN3CCN(C)CC3)CC2=O)cc1 (centres undefined)	11	17	0.8	0	12	0.7	-3	2%	-7	-0.1
COc1ccccc1CNC(=O)COC(=O)c1cccc(S(=O)(=O)N2CCCCC2)c1	-22	-14	-0.3	2	1.7	1.2	-4	x	-10	0.3
CC1CCN(C(=O)COC(=O)c2ccc3c(c2)OCCO3)CC1	-3	-7	-1.1	x	-3.7	-0.8	2	-1%	x	x
O=C(NCC1(N2CCCCC2)CCCCC1)c1ccc(S(=O)(=O)N2CCCC2)cc1	1	9	-2.6	-16	5.6	0.2	-7	-2%	-9	2.3
O=C(c1ccco1)N(CCC(c1ccccc1)c1ccco1)Cc1ccc(F)cc1 (centres undefined)	x	x	x	9	6.9	0.2	7	72%	40	11
CCc1ccc(N2CC(C(=O)N3CCCCCC3)CC2=O)cc1 (centres undefined)	7	7	-0.3	-3	-0.9	0.8	-4	x	-2	-1.0
Cc1ccc(OCCCCCN2CCOCC2)c(Cl)c1	-7	-6	1.0	0	3.5	0.1	6	x	22	-2.5
Cc1ccc(CNn2cnnc2SCc2ccc(F)cc2)cc1	x	x	x	9	x	0.5	-6	6%	-5	2.1
O=C(c1ccc(C(F)(F)F)cc1)N1CCC(=O)N(C(COCc2ccccc2)Cc2ccccc2)CC1 (centres undefined)	-10	-26	20	23	1.9	1.0	-2	8%	14	4.1
COc1cccc([C@@H]2CC=C(C(=O)O)[C@H](c3cccc(Cl)c3)N2S(=O)(=O)c2ccc(C)cc2)c1	-32*	-13*	0.2*	x	-3.6	-0.8	-4	x	x	x
COc1ccc(C(=O)N/N=C\c2coc3ccc(Cl)cc3c2=O)cc1	-9	-9	-4.4	-8	1.0	0.5	-8	1%	-1	-3.4
Cc1c(NC(=O)Nc2ccc(C(C)(C)C)cc2)c(=O)n(-c2ccccc2)n1C	9	14	-2.3	13	-1.8	-0.2	0	0%	2	u
COc1cc(OC)c(OC)cc1CNC(=O)c1ccc(COc2ccccc2)cc1	3	-9	1.2	4	-3.0	0.0	0	x	13	1.8
COCCNC(=O)CSc1nc(N)c(NC(=O)c2ccccc2F)c(=O)[nH]1	x	x	x	6	x	0.2	x	u	2	-1.1
CN1CCN(C(=O)c2cc3ccccc3[nH]2)CC1	-18	-18	-3.9	-6	-2.2	-0.5	-2	x	-7	4.3
NC(=O)c1ccccc1NC(=O)COc1ccc(Cl)cc1	-12	-9	-4.5	-9	-15	-2.0	8	-2%	2	-0.1
Cc1ccc(N2C(=O)N(CC(=O)Nc3ccc(C)cc3[N+](=O)[O-])C(=O)C2C)cc1 (centres undefined)	-3	-2	-2.4	-3	4.9	-0.3	-1	x	-2	x
CCOc1ccccc1N1CN(C2CCCCC2)CNC1=S	3	-1	0.5	8	0.7	-0.2	-4	-5%	x	3.2
O=c1cc(CN2CCN(Cc3ccc(F)cc3)C(CCO)C2)[nH]c2ccccc12 (centres undefined)	5	0	2.1	-6	-0.8	1.1	0	x	48	-3.1

Carrying on:
SMILES	Ecoli rRNA inh	Ecoli rRNA inh OD600	Ecoli rRNA inh RFP	Calb FLC	AF4-AF9 inh	Bfl-1 A1 inh	Beta cell apopt	Vif A3G	T cruzi inh	RanGTP-Imp inh
Cn1cccc1C1CCCN1CC(=O)Nc1ccc(C(N)=O)cc1 (centres undefined)	7	13	-0.8	x	-3.4	0.4	-3	x	x	x
CCCCc1ccc(NC(=O)N[C@@H](C)C(=O)O)cc1	1	-13	1.5	-4	4.3	-0.1	1	0%	-4	u
CC[C@H](C)Cc1cn([C@@H](CCCCNC(=O)OC(C)(C)C)C(=O)NCCCCCCCCCCC(=O)N2CCN(C(=O)OC(C)(C)C)CC2)nn1	-15	-21	-8.2	x	4.7	-0.5	82*	x	x	x
C/C(=N\NC(=O)c1ccc(C(=O)N/N=C(\C)c2ccco2)o1)c1ccco1	x	x	x	-3	-2.4	0.9	-4	x	13	-1.1
Cc1cc(=O)[nH]c(N/N=C2/CCCC/C2=C\c2ccccc2)n1	-34	-43	-6.6	4	-2.1	1.0	5	u	-10	7.2
O=C(O)CCn1ccnc1-c1ccccc1	x	x	x	-22	x	-0.1	-12	14%	4	1.7

This is a subset (hit frequency here may not be typical).
